Source: PubChem BioAssay (National Center for Advancing Translational Sciences (NCATS))
VDR inhibitor: inhibitors of human vitamin D receptor; P11473; VDR-SRC2-3 peptide fluorescence polarization, 2 h; Potency, µM, without a hit: max response, negative = inhibition, usual class: inhibitors; 400,000 tested, 0.93% active; AID 504847; active means well fitted inhibition curve with a large enough effect; inconclusive means small, poorly fitted or top-dose-only effect, or another doubt; inactive means no such curve, though single readings can be large or run the other way; further: series mostly up to about 120 µM
Target sequence (P11473 whole entry, looked up): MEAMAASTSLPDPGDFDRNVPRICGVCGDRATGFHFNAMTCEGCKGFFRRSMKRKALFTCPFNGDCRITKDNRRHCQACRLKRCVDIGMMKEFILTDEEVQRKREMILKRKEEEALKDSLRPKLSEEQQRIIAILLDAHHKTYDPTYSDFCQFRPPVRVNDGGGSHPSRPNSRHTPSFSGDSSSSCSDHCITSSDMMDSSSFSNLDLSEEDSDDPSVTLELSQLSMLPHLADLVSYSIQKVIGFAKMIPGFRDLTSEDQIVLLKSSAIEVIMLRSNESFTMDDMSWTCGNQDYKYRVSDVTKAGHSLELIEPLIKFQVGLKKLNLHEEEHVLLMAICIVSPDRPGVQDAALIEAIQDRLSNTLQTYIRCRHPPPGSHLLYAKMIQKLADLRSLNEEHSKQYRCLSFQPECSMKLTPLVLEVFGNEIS
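Fluorescence polarization assay measuring small-molecule disruption of VDR binding to the coregulator peptide SRC2-3. Compounds were pin-transferred (23 nl) into the reagent mix and incubated 2 h at room temperature before reading.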
Active calls of the source: *; ? = inconclusive; & = joins results of further samples; ! = repeats disagree. On the % scale 0 is the no-effect control and ±100 the full control effect; potency means the concentration at half of the fitted maximal effect. These rows are one share of the data; the hit share may differ from the screen's.

VDR inhibitor,canonical_smiles
-2%,COC(=O)N1CCc2c(sc(NC(=O)C3=COCCO3)c2C#N)C1
?,COc1ccc(CC(=O)Nc2sc3c(c2C(=O)Nc2ccc(C)cc2)CCCCC3)cc1
19%,COc1cc(OC)c(N(C)S(=O)(=O)c2cccc(C(=O)Nc3nc(C)cs3)c2)cc1Cl
-23%,CC(C)Cn1c(=O)c(C(=O)N/N=C/c2cccc(F)c2)c(O)c2ccccc21
-14%,COc1ccc(N2CCN(Cc3nc4ccccc4n3C)CC2)cc1
0%,CCc1noc(C)c1C(=O)OCC(=O)c1ccc(NC(C)=O)cc1F
-28%,CCSC1=C(C#N)C2(CCCC2)C(C#N)=C(N)N1
-17%,O=S(=O)(c1ccccc1)N1CCN(c2cc(-c3ccccc3)nc3ncnn23)CC1
?,Nc1ccc(N)c(C(=O)O)c1
-8%,CC1CCN(C(=O)CSc2nnc(CN3CCOCC3)n2-c2ccccc2)CC1
-21%,CCNS(=O)(=O)c1ccc(NC(=O)c2ccc(Cn3cc(Br)cn3)o2)cc1
13%,Cc1[nH]c(=O)[nH]c(=O)c1S(=O)(=O)N1CCN(c2ccccc2F)CC1
7%,O=C(c1ccncc1)N1CCC[C@@]2(CCN(c3ccncc3)C2)C1
10%,COC(=O)c1ccccc1NC(=O)c1ccc2c(c1)C(=O)N(Cc1ccco1)C2=O
9%,c1cc(OCCCN2CCCCC2)ccc1CN1CCCCC1
-9%,O=C(CCCC(=O)N(CC(=O)NC1CCCC1)c1cccc(F)c1)Nc1ccccn1
5%,COC(=O)c1cnc(NCc2ccc(F)cc2)c2ccccc12
6%,COc1ccc(NC(=S)Nc2cccc(Cl)c2Cl)cc1OC
-5%,CCN(C[C@H]1N[C@@](CC)(C(=O)OC)[C@H]2C(=O)N(Cc3ccccc3)C(=O)[C@@H]12)S(=O)(=O)c1ccccc1
-6%,O=C(NC1CCCCC1)N1CCC(c2nc(-c3ccc(S(=O)(=O)N4CCCC4)cc3)no2)CC1
-11%,Cc1ccc2cc(CCNC(=O)C(C)(C)C)c(=O)[nH]c2c1
2%,CCOc1ccccc1NC(=O)CNC(=O)CNC(=O)Cc1ccccc1
-21%,O=C(O)CN1C(=O)/C(=C\c2cccc(OC(=O)c3ccco3)c2)SC1=S
2%,CC(/C=N/NC(=O)Cc1cccn1C)=C\c1ccccc1
?,CCCC[n+]1c(C)sc2ccc(C)cc21

Carrying on.
VDR inhibitor,canonical_smiles
5%,O=C1CSC(=S)N1/N=C/c1cccc(C(F)(F)F)c1
0%,CCc1cc2c(=O)c(Oc3ccccc3)c(C)oc2cc1O
-8%,CCOC(=O)CSc1nc2cc(S(=O)(=O)N3CCOCC3)ccc2n1CC
-10%,COc1cccc(-c2nnc(SCC(=O)Nc3ccc(OC)c(OC)c3)n2N)c1
8%,O=C(COc1ccc(S(=O)(=O)NCc2ccccc2)cc1)N1CCOCC1
8%,O=C(CSc1nc2ccccc2o1)N1CCN(c2ccccc2)CC1
4%,COc1ccc([C@@H]2CC(=O)c3c(O)cc(O[C@@H]4O[C@H](CO[C@@H]5O[C@@H](C)[C@H](O)[C@@H](O)[C@H]5O)[C@@H](O)[C@H](O)[C@H]4O)cc3O2)cc1
-11%,Cc1c(Cl)cccc1NC(=S)NCCc1ccc(C(F)(F)F)cc1
11%,Cc1cccc(N2CCN(C(=O)c3ccc4ncsc4c3)CC2)c1C
-19%,COc1ccc(C(=O)OCc2ccc(C)cc2)cc1S(=O)(=O)N1CCOCC1
0%,COc1ccc(N=Cc2nc(-c3ccco3)oc2O)cc1
-9%,NC(=O)C1CCN(C(=O)/C=C/c2ccco2)CC1
2%,O=C([O-])c1ccccc1-[n+]1c(-c2ccccc2)cc(-c2ccccc2)cc1-c1ccccc1
?,O=C(O)Cn1c(=O)c2c3c(sc2n(Cc2ccc(Cl)cc2Cl)c1=O)CCCC3
-2%,CCOC(=O)c1cccc(C2=CC(=O)C[C@H](c3ccc(OC)c(OC)c3)C2)c1
-1%,CC(=O)Nc1ccc(NC(=O)CSc2nnc(NC(=O)Cc3ccc(F)cc3)s2)cc1
-7%,CC(C)c1nc(=S)c2ccccc2[nH]1
14%,CC(=O)N1CC2(C)CN(C(C)=O)CC(C)(C1)C2=O
4%,CC(C)Oc1ccc(Cc2cnc(N)nc2N)cc1
13%,O=C(CCCN1C(=O)CSc2ncccc21)N1CCN(Cc2ccccc2)CC1
2%,CCOc1ccc(C2CC(c3ccc(OC)c(OC)c3)n3nc(N)nc3N2)cc1 (stereo unspecified)
6%,CN1CCC(CO)(Cc2ccccc2)CC1
11%,CN1CCN(c2nc(-c3ccco3)cc(C(F)(F)F)n2)CC1
15%,CCOC(=O)c1ccc(NC(=O)c2cn3c4c(ccc(Cl)c4c2=O)OC(C)C3)cc1 (stereo unspecified)
-16%&-16%&-7%,Cc1cc(OC(=O)c2c(C)cc(O)cc2O)cc(O)c1C(=O)O

(next part)
VDR inhibitor,canonical_smiles
-1%,Nc1cccc(Oc2ccc3c(c2)C(=O)NC3=O)c1
-7%,O=C1c2ccccc2C(=O)c2cc(NC(=O)C3CC3)ccc21
13%,COc1ccc(-c2ccc(NS(=O)(=O)c3ccc(C(C)=O)cc3)cc2)nn1
-2%,Cc1c(NC(=O)c2cc(-c3ccccc3)on2)c(=O)n(-c2ccccc2)n1C
-3%,CCCNC(=O)[C@@H]1CCCN1C(=O)[C@@H]1Cc2ccccc2CN1
-24%,Cc1ccc(C)c(NC(=O)COC(=O)CC2CC3CCC2C3)c1 (stereo unspecified)
-14%,Cc1c(C#N)c2ccccc2n1CC(=O)NCc1ccccc1
-10%,O=C(CSc1nnc(-c2cccnc2)o1)Nc1nccs1
3%,CC1(C)Cc2c(cnn2-c2cccc(F)c2)C(NC(=O)Cn2cccn2)C1 (stereo unspecified)
5%,COc1ccc(C2N(c3ccc(C)cc3)CCN2c2ccc(C)cc2)cc1O
-16%,O=C(OC(c1ccccc1)c1nccc2ccccc12)c1cc([N+](=O)[O-])cc([N+](=O)[O-])c1 (stereo unspecified)
2%,Cc1ccc2onc(CC(=O)N3CCN(c4ccc(Cl)cc4)CC3)c2c1
-15%,CCOC(=O)C1CCN(C(=O)c2oc3ccc(S(=O)(=O)N4CCCCCC4)cc3c2C)CC1
22%,Cc1c(-c2ccc(F)cc2)nc(N)c(C#N)c1-c1ccco1
-9%,Cc1ccc(S(=O)(=O)NC(C(=O)OCC(=O)NC2CCS(=O)(=O)C2)C(C)C)cc1 (stereo unspecified)
10%,Cc1ccc(NC(=O)CN2C(=O)CSc3ccc(S(=O)(=O)N(C)C)cc32)c(C)c1
17%,CC1Cn2c(C(=O)NCCc3ccc(Cl)cc3)cc3cccc(c32)S1 (stereo unspecified)
-9%,CCCCNC(=O)NNC(=O)c1ccc(F)cc1
0%,COCCC(=O)N1CCCC(C(=O)c2ccc(Oc3ccccc3)cc2)C1 (stereo unspecified)
-15%,O=C(NCc1ccc(OC(F)(F)F)cc1)C1CC(c2ccc(C(F)(F)F)cc2)=NO1 (stereo unspecified)
-8%,Cc1ccc(S(=O)(=O)N2CCOCC2)cc1NC(=O)COC(=O)/C=C/c1ccc(F)cc1
8%,Cc1ccc(C2=NN(C(=O)c3ccco3)C(O)(C(F)(F)F)C2)cc1 (stereo unspecified)
2%,Cc1ccsc1CN(C(=O)c1oc2cc(Br)ccc2c1C)C1CCS(=O)(=O)C1 (stereo unspecified)
3%,N#Cc1c2n(c3c(=O)n(Cc4ccccc4Cl)cnc13)CCCCC2
-8%,Cc1ccc(CNC(=O)CCn2cc(-c3ccc(C)cc3)nc2CCN)cc1

The results go on:
VDR inhibitor,canonical_smiles
-3%,NS(=O)(=O)c1ccc(NC(=O)c2ccccc2Cl)cc1
-3%,CCCN1CCC(NC(=S)Nc2ccc([N+](=O)[O-])cc2)CC1
0%,CSCCC(NC(=O)c1ccccc1Br)C(=O)NNC(=O)c1ccco1 (stereo unspecified)
-6%,Cc1ccc(NC(=O)Cn2cccc2)cc1
0%,CC(OC(=O)c1ccncc1)C(=O)NC1CCCC1 (stereo unspecified)
0%,Cc1ccc(NC(=O)Nc2ccc(Cl)c(Cl)c2)nc1
-3%,CCc1c(C)nc2cc(-c3ccc(Cl)cc3)[nH]n2c1=O
-12%,CCOC(=O)C1=C(C)NC(=O)NC1/C=C/c1ccccc1 (stereo unspecified)
-25%,COCCCNCc1cc(C)n(-c2cc(S(=O)(=O)N3CCOCC3)ccc2N2CCCC2)c1C
22µM*!,COc1cc(/C=C/C(=O)c2c(O)cc(C)oc2=O)cc(OC)c1O
8%,O=C(CSc1ncn[nH]1)NCCC(c1ccccc1)c1ccccc1
12%,COc1ccc(-c2nc3c(c(SCc4ccc(Br)cc4)n2)Cc2c(CO)cnc(C)c2O3)cc1
22%,COc1ccc(-n2c(-c3ccc(Cl)cc3)cc3c2CC(C)(C)CC3=O)c(OC)c1
14%,O=C(CN1CCN(c2ccccc2)CC1)Nc1ccc2c(c1)CCC2
?,CCN(C(=O)c1cc2c(C)nc3ccccc3c2o1)c1cc(Cl)ccc1OC
-4%,CC(C)[C@H](NC(=O)C1CC(=O)N(c2ccc3c(c2)OCO3)C1)C(=O)NC1CCCC1 (stereo partly specified)
-28%&-10%,COc1cccc(NC(=O)CSc2nc3ccccc3n2C)c1
10%,O/N=C\c1cnc(N2CCN(c3ccccc3)CC2)s1
1%,COc1ccc(-c2nnc3c4ccccc4c(C)nn23)cc1S(=O)(=O)N1CCN(CCO)CC1
-1%,CCOC(=O)COc1ccc(S(=O)(=O)Nc2ccc3c(c2)OCCO3)cc1
-11%,CN1C(=O)C2C(c3ccc(N(C)C)cc3)NN(Cc3ccccc3)C2C1=O (stereo unspecified)
5%,CC(C)c1ccc(CN(Cc2ccco2)c2cnc(S(C)(=O)=O)nc2C(=O)Nc2ccccc2)cc1
8%,CC(C)(C)NC(=O)COc1ccc2oc3c(c2c1)CCCC3
6%,O=S(=O)(NCc1ccccc1Cl)c1ccc(-c2cnc(C3CC3)o2)cc1
3%,Cc1c(NS(=O)(=O)c2ccc(C(=O)NCc3ccccc3)cc2)c(=O)n(-c2ccccc2)n1C

(further entries)
VDR inhibitor,canonical_smiles
-13%,CC(C)(C)S(=O)(=O)c1ccc2nc3c(n2c1)CCCC3
7%,COC(=O)[C@]1(C)N[C@H](CN(C)C(=O)Nc2ccc(OC)cc2)[C@@H]2C(=O)N(Cc3ccccc3)C(=O)[C@@H]21
13%,CC(C)n1c(=O)c2c(O)cc(=O)oc2c2ccccc21
6%,Cc1nc(-c2ccc(S(=O)(=O)N3CCN(Cc4ccccc4)CC3)s2)cs1
-14%,Cc1cc(C(C)(C)C)cc(S(=O)(=O)Nc2ccc(C(=O)O)cc2)c1C
3%,COc1ccc(OC)c(Nc2nc(-c3sc(NC(=O)CC(C)C)nc3C)cs2)c1
-5%,CC(C)(CNS(=O)(=O)c1ccc(F)cc1)CNS(=O)(=O)c1ccc(F)cc1
4%,CCN(CC)S(=O)(=O)c1ccc(C)c(NC(=O)Cn2cnc3cc([N+](=O)[O-])ccc3c2=O)c1
17%,O=C(/C=C/c1ccc([N+](=O)[O-])cc1)NCC1CCCO1 (stereo unspecified)
-12%,COc1cccc(C(=O)Nn2cnnc2)c1OC
-12%,Cc1ccc(S(=O)(=O)N2CCN(c3nc(-c4cccs4)nc4ncccc34)CC2)cc1
9%,Cc1c(C(=O)N2CCN(S(=O)(=O)c3ccccc3)CC2)oc2ccc(Br)cc12
-5%,O=c1[nH]c(COc2ccc(Cl)cc2Cl)nc2ccccc12
?,Cc1ccccc1/C=C/c1nc2ccccc2c(=O)n1CCc1ccccc1
-23%&-10%,COCCNC(=O)C1(C(F)(F)F)CC(CCCO)CCCO1 (stereo unspecified)
10%,CCNC(=O)CC1SC(=Nc2cccc(Cl)c2C)N(C)C1=O (stereo unspecified)
-13%,Cc1cccc(C)c1NC(=O)CSc1nnc(Cc2ccccc2)o1
-15%,CCOC(=O)C1=NOC(Cn2cc(C#N)c(=O)n(C)c2=O)C1 (stereo unspecified)
-1%,O=C(c1ccc2c(c1)OCO2)[C@@H]1[C@@H]2C(=O)N(C3CCCCC3)C(=O)[C@@H]2C2c3ccccc3C=CN21 (stereo partly specified)
